N370S GC mod: N370S glucocerebrosidase modulation, Gaucher chaperone candidate. P04062. N370S GC spleen homogenate, 4MU-glucoside fluorescence. Potency, µM (titrated, usually from 59.4 µM), for inactives: top-dose activity change, negative = inhibition, actives largely listed as inhibitors. 330,000 tested, 0.092% active;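 note: 0% = full enzyme activity and -100% = no enzyme basal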
FEN1 inh: inhibitors of human flap endonuclease 1. Recombinant FEN1 flap cleavage, fluorescence, 15 min. Potency, µM (highest dose often 114 µM), without a hit: at the highest dose activity change, negative = inhibition, usual class: inhibitors. 390,000 tested, 0.35% active. P39748; note: nearly all actives have a fitted effect of over 65% in size
Target sequence (P39748 whole entry, looked up): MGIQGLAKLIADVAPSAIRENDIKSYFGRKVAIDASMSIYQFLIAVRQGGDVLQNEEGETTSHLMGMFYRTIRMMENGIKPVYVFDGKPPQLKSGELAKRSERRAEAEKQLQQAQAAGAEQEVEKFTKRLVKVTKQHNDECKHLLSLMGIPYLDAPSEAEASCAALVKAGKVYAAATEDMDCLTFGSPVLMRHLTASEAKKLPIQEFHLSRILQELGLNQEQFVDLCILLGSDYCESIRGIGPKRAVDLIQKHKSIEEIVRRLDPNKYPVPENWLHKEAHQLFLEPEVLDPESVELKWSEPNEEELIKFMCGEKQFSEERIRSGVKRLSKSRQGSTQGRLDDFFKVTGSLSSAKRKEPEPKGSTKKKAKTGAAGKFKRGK
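FEN1 at 10 nM preincubated with compounds 15 min at room temperature, then flap DNA substrate added at 50 nM final. Signal read at 0 and 15 min; concentration-response fitted with four-parameter Hill equation.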
* = called active by the depositor; ? = inconclusive; · = not tested or not shown; & = joins results of further samples; [ ] = remark or other dose. Calls come from the whole dose curve; as a rule, active = well fitted curve in the direction sought with a large enough effect; inconclusive = small, poorly fitted or top-dose-only effect, or another doubt; inactive = no such curve, though single readings can be large; an effect the other way counts as inactive or inconclusive. Unless noted, % is set by controls: 0 for no effect and ±100 for the full control effect; potency is the fitted concentration of half-maximal effect. The list is partial, and most or all hits are left out here.

Compound	N370S GC mod	FEN1 inh
O=[N+]([O-])c1ccc(Nc2ccccc2)cc1	12%	-19%
N=c1c2c(n(Cc3ccc(Cl)cc3Cl)c3c1CCC3)CCCC2	-16%	-3%
COc1cc2c(cc1O)C(Cc1ccc(O)cc1)NCC2 (configuration not stated)	?	-3%
O=C(CCCN1CCC2(CC1)C(=O)NCN2c1ccccc1)c1ccc(F)cc1	3%	-7%
COc1cc2c(cc1OC)[C@]13CCN4CC5=CCOC6CC(=O)N2[C@@H]1[C@@H]6C5C[C@@H]43 (some centres not stated)	-1%	·
c1ccc([C@@H]2CO2)cc1	·	-3%
COC(=O)C1=C(c2ccc(OCc3ccccc3)cc2)C[C@@H]2CC[C@H]1N2C(=O)NCCN1CCOCC1	·	17%
CC(C)C12CN3CC(C(C)C)(CN(C1)C3c1cccnc1)C2=O (configuration not stated)	7%	-1%
CC[C@H]1CN2CCc3cc(OC)c(OC)cc3[C@@H]2C[C@@H]1C[C@H]1NCCc2cc(OC)c(OC)cc21	-7%&-1%	20%[57.1 µM]
Cc1ccc2c(c1)N(C(=O)CCC(=O)N1CCC3(CC1)OCCO3)CCO2	-10%	5%

(listing goes on)
Compound	N370S GC mod	FEN1 inh
CC(ON1CC1(C(F)(F)F)C(F)(F)F)(C(N)=O)C(N)=O (configuration not stated)	-9%	7%
C[C@H]1CCCC(=O)CCC/C=C/c2cc(O)cc(O)c2C(=O)O1	19%&-11%&27%	-11%
CCc1cccc(CC)c1N(COC)C(=O)CCl	5%&-16%	-7%
O=C(c1ccc(CS(=O)(=O)c2ccccc2)o1)N1CCC2(CC1)OCCO2	-8%	6%
COc1cc2c(cc1OC)[C@H](C)NCC2	1%[21.6 µM]	·
COC1=CC2C3Cc4ccc(OC)c(O)c4[C@]2(CCN3C)CC1=O (some centres not stated)	2%	·
CCN1CCN(c2ccc([N+](=O)[O-])cc2C#N)CC1	-3%	-2%
CC(C)N(C(=O)CCl)c1ccccc1	0%	-2%
CC(=O)C1C2c3ccccc3O[C@@]1(C)N=c1s/c(=C/c3ccoc3)c(=O)n12 (some centres not stated)	8%	-4%
O=C(O)CCn1cc(C=C2C(=O)NC(=S)NC2=O)c(-c2ccccc2)n1	13%	-19%

The list goes on.
Compound	N370S GC mod	FEN1 inh
COC(=O)C1=C(c2c(C)noc2C)C[C@@H]2CC[C@H]1N2C(=O)NCCO	·	-10%
CC1O[C@@H](OC2CC(O)[C@@]3(CO)C4C(O)C[C@@]5(C)C(C6=CC(=O)OC6)CC[C@]5(O)C4CC[C@]3(O)C2)C(O)C(O)C1O (some centres not stated)	-3%	·
CCCC1=Nc2cc(C(=O)NC3CCC(C)CC3)ccc2Sc2ccccc21 (configuration not stated)	·	-18%
OC1(c2ccccc2F)CC2CCC(C1)N2CCN1CCOCC1 (configuration not stated)	2%	-3%
CCC1CN2CCC1CC2C(O)c1ccnc2ccccc12 (configuration not stated)	-9%	·
Cc1cnc(NC(=O)CN2CCCCC2)s1	-1%	7%
O=C(Cc1ccccc1)N1CCN(Cc2c[nH]c3ccccc23)CC1	?	10%
CCC(Sc1ccccc1)C(=O)OC1CC2CCC(C1)N2C (configuration not stated)	-3%	·
COc1ccn(C)c(=O)c1C#N	0%	-2%
Cc1cc(C=C2C(=O)NC(=O)NC2=O)c(C)n1-c1cccnc1	5%	-4%

Later entries.
Compound	N370S GC mod	FEN1 inh
S=P(NC1CCCCC1)(N1CC1)N1CC1	-4%	-4%
Cc1cccc([N+](=O)[O-])c1	-19%	-1%
CNc1ccc2nc3ccccc3[n+](C)c2c1	-7%	?
O=C(Cc1ccccc1)OCc1ccccc1	13%	4%
O=C(CCS(=O)(=O)c1ccc(Br)cc1)N1CCC2(CC1)OCCO2	-5%	0%
CCc1nc2ccccc2c(=O)n1-c1ccccc1OC	1%	1%
Cc1ccc(/C=C2\C(=O)NC(=S)N(c3ccccc3F)C2=O)s1	6%	?
C[C@]12CCC(=O)C[C@H]1CC[C@@H]1[C@@H]2CC[C@]2(C)C(=O)CC[C@@H]12	·	-1%
C=CCN1C[C@@H](C)N([C@H](c2ccc(C(=O)N(CC)CC)cc2)c2cccc(OC)c2)C[C@@H]1C	-3%	·
O=P1(Oc2ccccc2)OCCCS1 (configuration not stated)	5%	2%

Part of the list above in order of length of the SMILES, largest number first.
Compound	N370S GC mod	FEN1 inh
C[C@]12CCC(=O)C[C@H]1CC[C@@H]1[C@@H]2CC[C@]2(C)C(=O)CC[C@@H]12	·	-1%
CCc1cccc(CC)c1N(COC)C(=O)CCl	5%&-16%	-7%
COc1cc2c(cc1OC)[C@H](C)NCC2	1%[21.6 µM]	·

Other structures
Compound	N370S GC mod	FEN1 inh
CN(C)c1ccc(CN2CC=C(c3ccc(F)cc3)CC2)cc1	-6%	15%
O=[N+]([O-])c1ccc(O)c([N+](=O)[O-])c1	-29%&-19%	-2%
Oc1cc(Cl)c(Cl)cc1Cl	6%	·
COC(=O)C1=C(c2ccccc2OCc2ccccc2)C[C@@H]2CC[C@H]1N2C(=O)NCCOc1ccccc1	·	-2%
Cn1c(=O)n(C)c2cc(CNCCc3ccccc3)ccc21	·	-5%
CCN1C(=O)NC(=O)/C(=C\c2cn(CC(=O)N3CCCCC3)c3ccccc23)C1=O	4%	12%
Cc1cccc(N2C(=O)NC(=O)/C(=C/c3ccc(N4CCOCC4)cc3)C2=O)c1	-7%	-3%
O=C(NCNC(=O)N[C@H]1C(=O)NC(=O)N1CO)N[C@H]1C(=O)NC(=O)N1CO	24%[21.6 µM]	·
CSc1nc(NC(C)C)nc(NC(C)C)n1	0%	-3%
Cc1ccc(/C=C2\C(=O)NC(=O)N(CCc3ccc(F)cc3)C2=O)o1	2%	?

Following part.
Compound	N370S GC mod	FEN1 inh
Cc1sc2ncn(CC(=O)N3CCC4(CC3)OCCO4)c(=O)c2c1C	-12%	3%
COc1ccc(NC(=O)CN2C(=O)CN=C(c3ccccc3)c3ccccc32)c(OC)c1	·	-13%
COc1nc2ccccc2c(=O)n1-c1ccc(C)cc1	6%	13%
O=[N+]([O-])c1cccc(CCl)c1	-10%	-15%
Cc1cc(OCC(=O)N2CCN(CCc3ccncc3)CC2)cc(C)c1Cl	·	17%
O=C1CC(=O)N(c2cccc(F)c2)C(=O)N1	-11%	-6%
CC(C(N)=O)N1CC(c2ccc(Cl)cc2)CC1=O (configuration not stated)	-10%	4%
COc1ccc(C(c2ccc(OC)cc2)C(Cl)(Cl)Cl)cc1	19%&11%&14%	?
O=C(Cc1ccccc1)NC(Oc1ccccc1Cl)C(Cl)(Cl)Cl (configuration not stated)	-3%	-9%
COc1ccc(Cn2c(O)c(/C=N/NC(=O)c3ccncc3)c(=O)[nH]c2=O)cc1	-6%	-11%

3 entries drawn at random from the list so far:
Compound	N370S GC mod	FEN1 inh
Cc1cc(OCC(=O)N2CCN(CCc3ccncc3)CC2)cc(C)c1Cl	·	17%
O=C1CC(=O)N(c2cccc(F)c2)C(=O)N1	-11%	-6%
COc1ccc(Cn2c(O)c(/C=N/NC(=O)c3ccncc3)c(=O)[nH]c2=O)cc1	-6%	-11%

Later entries.
Compound	N370S GC mod	FEN1 inh
NCC1(CC(=O)O)CCCCC1	17%	·
CCC1(c2ccccc2)C(=O)N(C)C(=O)N(C)C1=O	9%	9%
C=CCN1C[C@H](C)N([C@H](c2ccc(C(=O)N(CC)CC)cc2)c2cccc(O)c2)C[C@H]1C	-7%	·
C[C@]12CC(=CO)C(=O)C[C@@H]1CC[C@@H]1[C@@H]2CC[C@@]2(C)[C@H]1CC[C@]2(C)O	9%	·
C=CCN1C(=O)NC(=O)/C(=C/c2cc3c4c(c2)CCCN4CCC3)C1=O	-4%	-9%
CCOC(=O)c1c(/N=C/C2C(=O)NC(=S)NC2=O)sc2c1CCC2	-14%	-22%
CN1CCC(N(C)c2nc(-c3ccccc3)nc3ccccc23)CC1	-1%	?
CC(C)n1cc(C(=O)N(CC(=O)NC2CCCC2)Cc2ccccc2)cn1	-1%	1%
CN1[C@@H]2CC[C@H]1CC(OC(c1ccc(F)cc1)c1ccc(F)cc1)C2 (some centres not stated)	-22%	·
O=C1N=c2ccccc2=C/C1=C\c1c(O)[nH]c(=S)[nH]c1=O	0%	-16%

The results go on.
Compound	N370S GC mod	FEN1 inh
O=C(CN1CCCCC1)c1ccc(F)cc1	3%	16%
CC(C)(C)c1ccc(CSc2cnn(C(C)(C)C)c(=O)c2Cl)cc1	8%	-21%
COc1ccc(CC(=O)Nc2ccc(C#N)c(Cl)c2)cc1S(=O)(=O)N1CCOCC1	-2%	-8%
CN1C[C@H](C(=O)N[C@]2(C)O[C@@]3(O)C4CCCN4C(=O)[C@H](Cc4ccccc4)N3C2=O)C[C@@H]2c3cccc4[nH]cc(c34)C[C@H]21 (some centres not stated)	15%&27%&16%	·
CCn1cc(C(=O)N2CCCCC2)c2ccccc21	7%	-11%
CCN1C(=O)CC(c2cccnc2)=Nc2ccccc21	-3%	-2%
COc1cc2c(cc1OC)C13CCN4CC5=CCOC6CC(=O)N2C1C6C5CC43 (configuration not stated) (tested in a mixture with another compound)	8%	17%
COc1ccc2[nH]cc(CCNCc3cccnc3)c2c1	-2%	-1%
COc1ccc(C(=O)Nc2ccc(Cl)cc2C(=O)c2ccccc2)c(OC)c1	·	-26%
O=C(Cc1ccccc1)OCC(=O)c1ccccc1	-12%	3%

Later entries.
Compound	N370S GC mod	FEN1 inh
CC1CC[C@@]2(OC1)OC1C(O)C3C4CC[C@H]5CC(O[C@@H]6O[C@@H](CO)[C@H](OC7OC(CO)C(O)C(OC8OCC(O)C(O)[C@H]8O)[C@@H]7O[C@@H]7OC(CO)[C@H](O)[C@@H](O[C@@H]8OC(CO)C(O)C(O)C8O)C7O)C(O)C6O)C(O)C[C@]5(C)C4CC[C@]3(C)C1C2C (some centres not stated)	-19%	·
CCC(C)N1C(=O)NC(=O)C2(Cc3cc(C)ccc3N(C)C2)C1=O (configuration not stated)	9%	3%
Cc1ccccc1-[n+]1c(-c2ccccc2)cc(-c2ccccc2)cc1-c1ccccc1	-7%	-13%
CC(C)(C)c1ccc(OC(=O)N2CCCCC2)cc1	9%	-18%
COC(=O)C1=C(c2ccc(-c3ccccc3)c(F)c2)C[C@@H]2CC[C@H]1N2C(=O)NCC1CC1	·	-3%
NNC(=O)c1nc[nH]c1C(=O)Nc1ccc(Cl)cc1C(=O)c1ccccc1	1%	-11%
CC(Cc1ccccc1)N1C(=O)c2ccccc2C1=O (configuration not stated)	-7%	16%
Clc1cc(Cl)c(-c2cc(Cl)c(Cl)cc2Cl)cc1Cl	-22%	-6%
O=C(C1CCC(=O)N1Cc1ccc(F)cc1)N1CCC2(CC1)OCCO2 (configuration not stated)	3%	7%
N#Cc1ccc(/C=C/C(=O)O)cc1	0%	22%

The results go on:
Compound	N370S GC mod	FEN1 inh
Cc1nn(Cc2ccccc2)c(C)c1C(=O)NC1CCCc2ccccc21 (configuration not stated)	16%	-3%
COC(=O)C1=C(c2cccc(C#N)c2)C[C@@H]2CC[C@H]1N2C(=O)NCCOc1ccccc1	·	-8%
C[C@]12CCC3C(CC[C@H]4C[C@@H](O)CC[C@]34C)C1[C@H]1CN=N[C@H]1[C@@H]2O (some centres not stated)	·	0%
C[C@@H]1O[C@@H]1P(=O)(O)O	1%	0%
CC12CN3CN(C1)CC(c1ccccc1)(C3)C2=O	-2%	2%
CN1C(=O)NC(=O)/C(=C/c2ccc([N+](=O)[O-])o2)C1=O	-22%	25µM*
Cc1nonc1OCCNc1ccc([N+](=O)[O-])c2cccnc12	16%	-20%
COC(=O)CC1=C(C(=O)OC)C2(C(=O)N(C)c3ccccc32)C(C#N)=C(N)O1 (configuration not stated)	-1%	-1%
CCN1CCN(C(=O)Cc2c(C)n(C(=O)c3ccc(Cl)cc3)c3ccc(OC)cc23)CC1	-10%	-6%
c1cc2c(c(N3CCNCC3)c1)OCCO2	5%	·

More records follow.
Compound	N370S GC mod	FEN1 inh
O=[N+]([O-])c1ccccc1CCl	-3%	-3%
c1ccc2c(CN3CCCCCC3)c[nH]c2c1	5%	-11%
O=[N+]([O-])c1ccccc1	2%	·
CC(C)N(Cc1ccco1)/N=C/c1c(O)n(Cc2ccccc2)c(=O)[nH]c1=O	18%	-3%
O=C1NC(=O)C(CCc2ccncc2)(C2CCCCC2)C(=O)N1	9%	0%
c1ccc2nc(N3CCNCC3)ccc2c1	11%	0%&-2%
C[C@@]12CCC(=O)C=C1C=C[C@H]1[C@H]3CC[C@](O)(CCC(=O)O)[C@]3(C)CC[C@@H]12	2%[21.6 µM]	·
COC(=O)C1=C(c2cccc(C#N)c2)C[C@@H]2CC[C@H]1N2C(=O)NCCOc1ccc(OC)cc1	·	3%
COC(=O)C(C)Oc1cc(C)cc2oc(=O)c3c(c12)CCCC3 (configuration not stated)	?	-21%
O=P(NS(=O)(=O)c1ccc(Br)cc1)(Oc1ccccc1)Oc1ccccc1	23%	-4%

(next part)
Compound	N370S GC mod	FEN1 inh
O=P(Nc1cccc(F)c1)(Oc1ccccc1F)Oc1ccccc1F	?	-6%
COc1ccc(/C=C/c2nc3ccccc3c(=O)n2-c2ccc(C)cc2)cc1O	·	-12%
C[C@@H]1O[C@@H](O[C@H]2C[C@@H](O)[C@]3(CO)[C@H]4[C@H](O)C[C@]5(C)[C@@H](C6=CC(=O)OC6)CC[C@]5(O)[C@@H]4CC[C@]3(O)C2)[C@H](O)[C@H](O)[C@H]1O	2%&-1%	0%
CC(=O)/C=C/c1ccccc1	7%	-16%
CCN(CC)c1ccc(CNCCc2ccc(F)cc2)cc1	5%	-14%

Bioassay records (PubChem BioAssay)
